High-throughput results as filed in PubChem BioAssay.
A1 inh – inhibitors of the anti-apoptotic protein A1, read as caspase activation; MEF A1-2A-BIM cells, Caspase-Glo 3/7 luminescence, 3 h; percent of clofoctol response, vehicle zero; 0.066% of 330,000 active; caspase activation, % (test concentration not listed);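 active = over half of replicate activation scores above 10%, or exactly half above 10 with the replicate mean above 10; inconclusive = replicate mean below 10 yet half the replicates above 10; inactive = over half of replicates below 10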;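 note: wells of about 30 µL received 50 nL stock; many hits fall short of the cut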
Ecoli growth – blocks Escherichia coli growth | OD600, 23 h; stronger effect = lower value | 0.21% of 330,000 active | AID 1053175 | OD600 absorbance (test concentration not listed);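 active = OD600 absorbance below the run mean of sample wells minus 3.6 SD, in any replicate, cut at about 0.56 in these data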;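 note: stock transfer was 300 nL into about 60 µL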
LANA-H2A inh – blocks KSHV LANA binding to histone H2A/H2B; cell-free LANA-H2A/H2B peptide, fluorescence polarization; inhibition, % (test concentration not listed); 0.6% of 320,000 active; AID 2629; in the data active = inhibition mostly above about 10%, no sharp cut-off; inactive = mostly below about 6.7%;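 note: stock transfer was 7.5 nL into about 10 µL; 0% = median of vehicle wells and 100% = median of positive control wells; one replicate is shown; the record names a cut of 25% in any replicate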
HNF4A DNA FP – change in binding of human HNF4 alpha to DNA; 0.3% of 360,000 active; HNF4a-FITC DNA binding, fluorescence polarization, 1 h; P41235; AID 1224865; activity change, % at 10 µM; in the data active = activity change above about 30%, passing the limit was not always enough;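 note: controls were the assay level and a saturating level of protein; the project sought stronger binding though the title names inhibitors; some compounds called inactive have numbers as strong as hits; positive values seem to mean higher polarization but the record does not say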
Target sequence (P41235 whole entry, looked up): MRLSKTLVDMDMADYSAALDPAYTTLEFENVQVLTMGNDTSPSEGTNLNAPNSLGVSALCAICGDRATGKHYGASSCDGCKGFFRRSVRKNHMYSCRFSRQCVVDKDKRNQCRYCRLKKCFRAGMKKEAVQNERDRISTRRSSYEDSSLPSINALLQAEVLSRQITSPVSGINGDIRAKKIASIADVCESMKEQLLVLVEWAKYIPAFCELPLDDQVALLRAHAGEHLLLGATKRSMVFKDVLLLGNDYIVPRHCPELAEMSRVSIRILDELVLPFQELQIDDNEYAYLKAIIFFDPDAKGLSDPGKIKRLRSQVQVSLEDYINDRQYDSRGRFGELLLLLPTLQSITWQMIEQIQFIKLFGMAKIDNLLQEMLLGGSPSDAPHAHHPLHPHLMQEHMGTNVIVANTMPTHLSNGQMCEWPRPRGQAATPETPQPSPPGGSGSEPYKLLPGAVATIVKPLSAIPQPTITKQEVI
Beta2AR agonist – agonists of human beta-2 adrenergic receptor inducing internalization. Am2.2-beta2AR cells, FAP receptor internalization, flow cytometry; reference of the scale not given here. response, % (concentration not given with the values). 0.43% of 340,000 active. P07550;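 active = response above a set limit, near 3 SD of response in nonfluorescent compounds, cut at about 42% in these data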;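 note: stock transfer was 100 nL into about 11 µL; a reference agonist was the positive control; negative values mostly stem from fluorescent compounds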
Target sequence (P07550 whole entry, looked up): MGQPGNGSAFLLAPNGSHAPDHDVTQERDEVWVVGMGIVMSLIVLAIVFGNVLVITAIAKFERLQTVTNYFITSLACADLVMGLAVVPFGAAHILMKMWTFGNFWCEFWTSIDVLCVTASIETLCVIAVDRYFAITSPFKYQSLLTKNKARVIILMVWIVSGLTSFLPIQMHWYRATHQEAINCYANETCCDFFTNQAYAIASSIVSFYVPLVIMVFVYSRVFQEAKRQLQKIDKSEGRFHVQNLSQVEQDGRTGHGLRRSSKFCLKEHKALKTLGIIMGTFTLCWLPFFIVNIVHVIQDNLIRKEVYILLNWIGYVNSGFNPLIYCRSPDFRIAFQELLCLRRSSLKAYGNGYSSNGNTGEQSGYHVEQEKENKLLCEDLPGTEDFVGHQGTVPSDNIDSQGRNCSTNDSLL
Vif TR-FRET – HIV-1 Vif–A3G interaction blockers – biochemical, TR-FRET, GST-Vif 1-94, biotin-A3G peptide, dose response retest, primary screen (AID 1117319); TR-FRET GST-Vif / biotin-A3G peptide binding; higher % means a stronger effect; test concentration not given here; strong numbers were not always called active; inhibition, %; hits with a dose series show IC50 in µM; 0.57% of 260,000 active;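 active = above the screen mean plus three standard deviations and confirmed in dose response; inconclusive = results disagree or hit not tested in dose response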;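 note: Vif residues 1-94 fused to GST binding biotinylated APOBEC3G peptide 110-148; 0% = full assay without inhibitor and 100% = GST in place of GST-Vif; retest series ran down from 100 µM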
UCH37 DUB inh – human UCH37 deubiquitinating enzyme inhibition; purified proteasome/UCH37, Ub-AMC cleavage fluorescence; Q9Y5K5; 0.33% of 330,000 active; inhibition, % (test concentration not listed);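 active = mean of two replicates above 20%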;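 note: 0% = compound-free wells with enzyme and 100% = wells lacking proteasome; stock transfer was 100 nL into about 20 µL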
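Material: Human UCH37 enzyme supplied as purified proteasome complex | Schedule: 30 min compound-proteasome preincubation then 25 min substrate reaction, room temperature | Detection: AMC fluorescence from Ub-AMC cleavage, excitation 355 nm, emission 460 nm | Benchmarks: Wells without proteasome as full block, compound-free enzyme plus substrate as uninhibited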
The depositor's hits bear a star; ? = inconclusive; . = not tested or not shown.

SMILES	A1 inh	Ecoli growth	LANA-H2A inh	HNF4A DNA FP	Beta2AR agonist	Vif TR-FRET	UCH37 DUB inh
CCOC(=O)C(C)n1cnc2sc(C)c(C)c2c1=O (stereo unspecified)	?	0.744	2.9	6.8	-4.1	-4.3%	1.9
O=C(Nc1ccc(-c2nc3cccnc3s2)cc1)c1ccc(Cl)nc1	-0.9	0.647	2.6	4.5	1.0	-3.1%	-19.9
O=C1C2C3C=CC(C3)C2C(=O)N1Cc1ccccc1 (stereo unspecified)	-0.5	0.74	-0.1	2.0	5.6	6.1%	4.8
Cc1cnc(NC(=O)c2ccc3c(c2)OCCO3)s1	.	0.675	.	3.6	-13.1	.	-2.0
NC(=O)c1c(NC(=O)Cn2nc(C(=O)O)c3ccccc3c2=O)sc2c1CCC2	-0.4	0.721	-0.2	-14.2	29.6	.	3.6
Cc1cc2ccccc2n2c(SCC(=O)Nc3ccc(S(=O)(=O)N4CCC(C)CC4)cc3)nnc12	-0.9	0.735	-4.4	2.1	-22.7	-6.7%	-1.8
O=C(NC1=NCCS1)c1ccc(Cl)c(S(=O)(=O)N2CCCC2)c1	0.1	0.73	0.0	0.0	-8.9	-3.7%	3.4
Cc1onc(C(=O)N2CCN(C(c3ccccc3)c3ccccc3)CC2)c1[N+](=O)[O-]	0.7	0.772	0.2	-2.6	12.6	-9.1%	-0.5
CCOC(=O)Cc1csc(-n2sc3ccccc3c2=O)n1	-3.2	0.647	1.2	6.7	1.5	?	4.6
Cc1nc(Nc2ccc(S(N)(=O)=O)cc2)oc1C	-1.0	0.728	1.8	-0.7	-1.5	1.0%	-1.8
CC1(C)C(=O)Nc2ccccc2N1C(=O)COC(=O)/C=C/c1ccc(OC(F)F)cc1	-0.4	0.711	-2.8	-0.5	4.3	3.6%	0.0
C=CCc1ccccc1OCC(O)CN1CCN(CCN2C(=O)c3cccc4cccc(c34)C2=O)CC1 (stereo unspecified)	0.0	0.644	-2.9	0.6	-3.8	?	-1.8
CN1CCN(CC(C)(C)NS(=O)(=O)c2ccccc2)CC1	-0.6	0.679	-4.3	1.6	4.1	1.9%	-0.4
COc1ccccc1CNC(=O)C1=CCN(S(=O)(=O)c2ccc(C)cc2)CC1	-1.8	0.667	5.9	1.8	8.7	30.1%	1.4
O=C(CN1CCCCCC1)Nc1cc([N+](=O)[O-])ccc1Cl	0.8	0.685	-5.0	-3.1	-7.2	.	4.1
CCOC1=NN(c2ncc(C(F)(F)F)cc2Cl)C(=O)/C1=C/N(C)C	0.5	0.675	0.3	-3.8	-6.5	.	0.9
Cc1c(NC(=O)c2c(O)c3ccccc3n(C)c2=O)c(=O)n(-c2ccccc2)n1C	-0.5	0.677	-3.0	-0.2	5.7	.	1.2
Cc1cc(C)c2c(N)c(C(=O)Nc3ccc(F)cc3)sc2n1	-1.0	0.74	4.4	-3.4	-11.4	-8.1%	-129.8
CCN(CC(=O)N1CCCC1)S(=O)(=O)c1ccc(OC)cc1	-0.5	0.654	1.6	-1.1	1.4	.	2.0
Cc1cc(=O)oc2c(C(=O)/C=C/c3ccccc3)c(O)ccc12	-0.8	0.764	2.9	-0.8	-3.5	6.0%	-7.7
Cc1ccc(-n2c(SCC(=O)N3CCC(C(=O)O)CC3)nc3ccccc3c2=O)cc1C	1.7	0.684	1.8	1.9	-7.4	-4.3%	0.1
COc1cc(NC(=O)NS(=O)(=O)c2ccc(C)cc2)cc(OC)c1	0.4	0.727	-2.8	-0.9	5.1	-3.6%	5.2
COc1ccc(C(CNC(=O)c2cc(SC)ccc2Cl)N(C)C)cc1 (stereo unspecified)	-0.1	0.722	-5.5	2.4	-8.5	3.8%	0.7
N/C(=N\OS(=O)(=O)c1ccc2ccccc2c1)c1cccnc1	-1.4	0.634	0.8	-3.3	-0.3	-1.6%	1.0
Cc1ccc(NS(=O)(=O)c2ccc(NC(=O)C3CC3)cc2)c(C)c1	0.2	0.694	0.7	1.8	7.7	17.7%	5.3
O=C(O)c1ccccc1Sc1ncnc2sccc12	0.0	0.719	-2.2	-3.9	0.7	.	1.7
Cc1nn(Cc2ccc(Cl)cc2)c(C)c1NC(=O)CCCn1nc([N+](=O)[O-])c(Cl)c1C	0.0	0.717	-5.0	-3.5	-4.7	2.8%	-1.8
C[C@H](NC(=O)[C@@H]1Cc2ccccc2CN1)C(=O)NC1CCCC1	0.3	0.72	4.8	2.1	0.9	.	2.3
COc1ccccc1OCC(=O)N/N=C1\CCc2ccccc21	-4.4	.	-3.0	-1.7	3.9	-2.4%	.
Cc1cccc(OCc2n[nH]c(=S)o2)c1	-0.7	0.707	0.6	-1.1	-0.6	?	2.8
COc1ccc(C(=O)NNC(=O)C23CC4CC(CC(C4)C2)C3)c(OC)c1	0.8	0.641	-1.0	-1.0	-15.2	.	1.0
Cc1ccc(CS(=O)(=O)CCC(=O)NCCN(C)Cc2ccccc2)cc1	0.5	0.667	-0.2	0.0	-3.1	?	-0.3
O=C(Nc1ccc(Cl)cc1Cl)c1n[nH]c(Cn2cncn2)n1	-1.3	0.662	2.5	-0.5	-3.9	3.2%	0.8
Cc1cccc(-n2c(O)c(C=Nc3cc(O)ccc3C)c3ccccc3c2=O)n1	0.7	0.741	-1.3	-3.3	5.4	7.1%	9.8
Cc1ccc(NC2(C(N)=O)CCCC2)cc1	.	0.676	.	-2.5	0.2	-3.5%	-0.5
CCN(CC(=O)Nc1ccc(N2CCOCC2)cc1)C(=O)Cc1ccccc1	0.2	0.648	-1.1	1.6	-0.3	-3.5%	1.8
Cc1cc(-n2c(C)cc(C(=O)CN3C(=O)NC4(CCCCC4)C3=O)c2C)no1	0.6	0.619	-1.1	5.9	-10.6	18.4%	0.4
CC1(C)CC(=O)C=C(NNC(=O)c2cccnc2)C1	1.5	.	2.2	-0.2	4.3	.	.
CC1CN(CCOc2ccc([N+](=O)[O-])cc2)CC(C)O1 (stereo unspecified)	-0.8	0.669	2.4	2.2	0.0	-5.3%	4.3
CCOC(=O)c1nnn2c1nc(N1CCN(C)CC1)c1ccccc12	0.0	0.664	-4.5	-0.1	-4.7	-3.5%	2.9
NNC(=O)C(Cc1c[nH]c2ccccc12)NC(=O)c1ccccc1 (stereo unspecified)	0.5	0.702	10.6	-0.3	5.8	.	-0.9
COc1cc2c(cc1OC)CN(CC(=O)NC(=O)NCc1ccccc1)CC2	0.4	0.74	5.2	2.7	4.3	-6.5%	-2.6
O=C1CCCN1c1ccc(S(=O)(=O)N2CCCCC2)cc1	0.8	0.702	2.4	0.7	-12.3	0.3%	4.0
CCOC(=O)C1CCN(Cc2nnnn2CCc2ccccc2)CC1	0.0	0.691	0.9	2.8	1.5	-11.8%	1.9
Cc1c(NC(=O)C(C)OC(=O)C23CC4CC(CC(Br)(C4)C2)C3)c(=O)n(-c2ccccc2)n1C (stereo unspecified)	0.8	0.669	1.5	2.0	-8.3	2.5%	1.5
CCNc1nc(OC)nc(N2CCC(Cc3ccccc3)CC2)n1	0.0	0.715	1.3	-2.3	-8.0	-2.6%	2.8
Cc1cc(C)nc(Nc2nc(=O)c3ccccc3s2)n1	-3.3	0.721	1.1	2.3	1.4	?	1.2
Cc1c(NC(N)=O)c(=O)n(-c2ccccc2)n1C	-0.5	0.71	-0.2	-0.9	5.5	6.4%	1.5
COc1ccc(C)cc1-n1nnnc1SCC(=O)Nc1cccnc1Cl	0.1	0.693	4.9	-3.4	-1.4	.	0.7
Cc1ccc(-c2sc(-c3ccccc3)nc2CC(=O)Nc2ccccc2F)cc1	0.0	0.722	-0.9	-4.2	-2.9	-14.6%	4.7
CCOC(=O)c1c(C)n(C)c2c(C)cc(O)c(OC(C)=O)c12	-0.5	0.82	-6.6	-3.6	-2.3	5.4%	2.0
CCN(CC)c1ccc(NC(=O)Cn2nnc(-c3cccc(OC)c3OC)n2)c(C)c1	0.2	0.719	4.6	2.3	3.2	-1.6%	5.6
CCCCNc1c(-c2cccc(-c3cc(C(C)=O)cs3)c2)nc2ccc(C)cn12	-1.3	0.767	-0.4	3.1	29.2	.	5.1
COc1cc2nc(SCC(=O)NCc3ccco3)n(Cc3ccc(Cl)cc3)c(=O)c2cc1OC	-0.8	0.767	8.6	-0.7	1.3	9.2%	5.0
N#Cc1cccc(NC(=O)CN2CCN(Cc3ccccc3)CC2)c1	0.2	0.69	2.7	11.7	4.2	.	2.0
O=C1CC[C@H](O)CCN1[C@H](CSc1ccccc1)Cc1ccccc1	1.6	.	-0.2	6.2	-2.5	.	1.9
CC(C)(C(=O)N[C@H](CO)c1ccccc1)C(=O)N[C@H](CO)c1ccccc1	1.2	.	-4.0	-2.9	0.9	.	-5.6
O=C(CSc1nnc(NC(=O)C2CC(=O)N(c3ccccc3)C2)s1)NC1CCCC1 (stereo unspecified)	-1.0	0.716	-4.2	-2.0	-2.8	.	1.9
CC(C)c1ccc(/C=C2\SC(N3CCOCC3)=NC2=O)cc1	1.0	0.671	2.4	3.6	1.9	-6.6%	10.0
COc1ccc(-c2nc(N)n(C(C)=O)n2)cc1	0.4	0.717	2.9	3.0	-4.6	9.2%	0.0
(listing goes on)
SMILES	A1 inh	Ecoli growth	LANA-H2A inh	HNF4A DNA FP	Beta2AR agonist	Vif TR-FRET	UCH37 DUB inh
Cc1cc(Cl)ccc1NC(=O)CN1C(=O)C(=O)N(C2CCCC2)C1=O	-0.2	0.671	0.4	3.9	-2.7	0.6%	1.0
Cc1ccc(C)c(NC(=O)c2ccccc2C(=O)c2ccccc2)c1	1.0	.	0.6	-4.1	.	-0.1%	.
Cc1ccc(OCC(=O)NC(=S)Nc2ccc3c4c(cccc24)CC3)cc1	1.1	0.711	0.7	5.9	12.4	.	-0.5
Cc1nnc(NC(=O)CSc2ccc(-c3ccccn3)nn2)s1	0.2	0.622	-2.5	.	.	-9.9%	1.8
CCC(=O)NC(=S)NNC(=O)c1ccccc1[N+](=O)[O-]	0.1	0.63	0.9	-0.4	-0.8	12.5%	2.4
COc1ccc(/C=N/c2oc(C)c(C)c2C#N)c(OC)c1	0.5	.	2.2	-1.7	0.7	26.1%	.
COc1ccc(/C(O)=C2/C(=O)C(=O)N(CCN3CCNCC3)C2c2cccc([N+](=O)[O-])c2)cc1 (stereo unspecified)	0.0	0.691	-8.1	1.9	-5.4	.	8.6
CCc1noc(N)c1C(=O)Nc1ccc(Cl)cc1	0.5	.	4.6	-2.7	-9.1	.	.
O=C(CCc1ccccc1)c1ccc2c(c1)OCCCO2	0.0	0.684	-2.4	1.4	-1.6	3.2%	-1.0
Cc1nn(-c2ccccc2)c(Cl)c1/C=C(/CC(=O)O)c1nc2ccccc2s1	.	0.675	.	1.5	11.2	0.1%	7.2
CC1CN(S(=O)(=O)c2cccc(C(=O)NCCC3=CCCCC3)c2)CC(C)O1 (stereo unspecified)	-0.1	0.666	-0.2	3.5	-3.2	0.4%	1.8
Cc1ncc(CO)c(/C=N/NC(=S)Nc2cccc(Cl)c2)c1O	-0.1	.	7.9	9.1	-3.5	9.3%	.
COc1ccc(S(=O)(=O)N2CCCCCC2)cc1N	0.4	0.686	-0.1	-3.6	0.6	-0.5%	2.8
COc1ccccc1N(C)S(=O)(=O)c1ccc(Cl)c(C(=O)NCC2(N(C)C)CCCCC2)c1	0.9	0.662	-3.0	-1.1	5.5	-2.0%	3.6
Cc1nn(CC(=O)Nc2nnc(C(C)C)s2)c(=O)c2ccccc12	0.1	0.703	-1.4	1.6	-3.0	12.3%	1.7
C=CCn1c(N/N=C/c2ccc(O)cc2)nc2ccccc2c1=O	-2.9	.	4.0	0.8	-8.3	1.2%	.
